Screening results: PubChem, National Center for Advancing Translational Sciences (NCATS)
TRPML1 inh: inhibitors of human TRPML1 channel. 390,000 compounds, 0.02% hits. activity change, negative = inhibition, % (test concentration not listed). TRPML1-inducible cells, Ca2+ dye fluorescence, FDSS; hits give low values; inhibition of EC80 agonist-evoked calcium signal; in the data active means activity change below about -50%; inconclusive means about -30% to -50%; inactive means above about -30%;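 further: stimulus is agonist 54-4 at its EC80 concentration; on the % scale 0 is the no-effect control and ±100 the full control effect; compound concentration not given in the record; the text of the record puts the active cut at -80%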
Target sequence (Q9GZU1 whole entry, looked up): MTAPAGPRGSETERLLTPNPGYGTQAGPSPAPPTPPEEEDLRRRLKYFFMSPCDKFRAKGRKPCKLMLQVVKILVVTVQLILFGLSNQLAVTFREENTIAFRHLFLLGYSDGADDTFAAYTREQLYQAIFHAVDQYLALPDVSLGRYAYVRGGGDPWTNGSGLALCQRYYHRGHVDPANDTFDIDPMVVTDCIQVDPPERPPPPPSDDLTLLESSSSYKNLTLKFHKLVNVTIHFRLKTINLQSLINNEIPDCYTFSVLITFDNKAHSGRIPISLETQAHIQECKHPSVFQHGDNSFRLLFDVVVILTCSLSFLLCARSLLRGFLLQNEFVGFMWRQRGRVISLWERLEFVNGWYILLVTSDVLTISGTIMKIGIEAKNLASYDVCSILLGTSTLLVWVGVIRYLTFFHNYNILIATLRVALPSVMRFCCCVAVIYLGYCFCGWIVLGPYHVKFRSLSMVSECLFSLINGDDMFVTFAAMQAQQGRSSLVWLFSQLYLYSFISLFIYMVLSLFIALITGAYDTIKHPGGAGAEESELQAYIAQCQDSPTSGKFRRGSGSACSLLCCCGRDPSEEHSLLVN
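TRPML1-DL cells, Tet-induced overnight (~16 h, 37 °C) at 1,500 cells/well, were loaded with Ca8 no-wash dye plus quencher for 45-90 min at room temperature. Compounds were pinned during FDSS kinetic reading; agonist 54-4 at EC80 (4 uM final) then added.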
D2 PAM: potentiates the human D2 dopamine receptor allosterically; P14416; DiscoveRx D2 beta-arrestin cells, luminescence, 90 min; 100% = 57 uM dopamine signal; 360,000 compounds, 0.23% hits; potentiation, % (no concentration beside the values); active = potentiation of 50% or more; inconclusive = 30% to 50%; inactive = 30% or less;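 further: compound concentration not given in the record; tested on top of an EC20 dose of dopamine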
Target sequence (P14416 whole entry, looked up): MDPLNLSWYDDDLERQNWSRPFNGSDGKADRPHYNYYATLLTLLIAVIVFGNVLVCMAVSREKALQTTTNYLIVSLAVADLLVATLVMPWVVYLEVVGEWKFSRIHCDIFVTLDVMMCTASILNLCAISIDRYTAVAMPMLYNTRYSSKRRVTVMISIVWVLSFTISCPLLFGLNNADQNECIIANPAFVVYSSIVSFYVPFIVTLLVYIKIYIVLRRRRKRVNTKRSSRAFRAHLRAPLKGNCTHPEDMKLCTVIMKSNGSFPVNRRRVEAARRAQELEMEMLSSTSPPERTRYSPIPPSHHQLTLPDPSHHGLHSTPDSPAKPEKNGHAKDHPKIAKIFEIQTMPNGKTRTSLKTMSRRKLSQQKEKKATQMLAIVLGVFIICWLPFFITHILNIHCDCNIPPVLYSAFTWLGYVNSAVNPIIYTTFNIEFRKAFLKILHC
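D2 cells co-treated with compound plus 50 nM dopamine (EC20) for 90 min at 37 deg C to detect potentiation. Beta-arrestin recruitment was read as enzyme-fragment luminescence after 1 h at ambient temperature. Full response was set by 57 uM dopamine.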
PINK1 expr mod: changes PINK1 expression. PINK1 immunofluorescence, high-content cytometry, 24 h. Potency, µM (series often up to 76.6 µM), for inactives: at the highest dose activation (PINK1 increase), hits mostly activators. 410,000 compounds, 0.2% hits. AID 624263; active = well fitted activation curve with a large enough effect; inconclusive = small, poorly fitted or top-dose-only effect; inactive = flat fitted curve, though single readings scatter; cell line not stated here;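 further: potency means the concentration at half of the fitted maximal effect; % of control where 0% means no effect; nearly all actives have a fitted effect of over 65% in size; a mitochondrial uncoupler was the plate control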
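Stable cell line treated 24 h with compounds at 5 concentrations (CCCP controls), then fixed and immunostained for PINK1 plus nuclear and cell stains; PINK1 immunofluorescence quantified by laser-scanning microplate cytometry.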
TRPML1 agonist: activates the human TRPML1 channel; Q9GZU1; TRPML1-expressing cells, Ca2+ dye fluorescence, FDSS; host cell line not named in the record; reference of the full effect not given here; activation, % (concentration not given with the values); 410,000 compounds, 0.12% hits; in the data active = activation above about 50%; inconclusive = about 30% to 50%; inactive = below about 30%; further: 0% is about no effect; the text of the record puts the active cut at 80%
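Tetracycline-induced TRPML1-DL cells are seeded and incubated overnight before loading with a no-wash Ca2+ dye and quencher. Agonist activity is taken from the 110 s fluorescence read following compound pin-transfer on an FDSS, before EC80 54-4 challenge.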
D2 ag: agonists of human D2 dopamine receptor (beta-arrestin); activation, % (test concentration not listed); P14416; 360,000 compounds, 0.084% hits; DiscoveRx PathHunter D2 beta-arrestin, luminescence, 90 min; 100% = 57 uM dopamine signal; AID 624465; in the data active = activation above about 40%; inconclusive = about 15% to 40%; inactive = below about 15%; further: compound concentration not given in the record; the text of the record calls up to 30% inactive
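Agonist mode: compounds alone added to overnight-plated D2 PathHunter cells for 90 min at 37 C, with 57 uM final dopamine (EC100) defining full response. Beta-arrestin recruitment detected by chemiluminescent reagent, read after 1 h at ambient temperature.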
Six1-Eya2 blk: Six1/Eya2 interaction inhibition. AlphaScreen GST-Six1/His-Eya2 binding, biochemical; hits give low values; control for the full effect not named in the record. activity change, % (test concentration not listed). 360,000 compounds, 0.56% hits; in the data active = activity change below about -65%; inconclusive = about -30% to -65%; inactive = above about -30%; further: on the % scale 0 is the no-effect control and ±100 the full control effect
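AlphaScreen luminescence read after one hour at 37 °C in darkness. Pin-transferred compounds met GST-Six1 and His-Eya2 protein (5X stock 250 nM/500 nM) plus glutathione donor and Ni-chelate acceptor beads (5X, 50 ug/mL).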
Numbers without * were called inactive; ? = inconclusive; nt = not tested or not shown; [ ] = remark or other dose.

Sample of the layout:
| canonical_smiles | TRPML1 agonist | Six1-Eya2 blk | TRPML1 inh | D2 PAM | D2 ag | PINK1 expr mod |
| --- | --- | --- | --- | --- | --- | --- |
| CC1CCCCC1NC(=O)c1ccc2c(c1)[nH]c(=O)n2C1CCCC1 (stereo unspecified) | 0.8 | 4.4 | 7.7 | 2.2 | -0.4 | -0.2% |
| Cc1cccc(C)c1NC(=O)c1cccc(C(=O)Nc2c(C)cccc2C)n1 | 0.8 | 11.9 | 8.9 | -1.1 | 2.6 | 7.3% |
| CCOC(=O)c1c(C)[nH]c(C)c1C(=O)COC(=O)CSc1ccc(C)cc1 | 2.6 | ? | 12.8 | -1.4 | -0.5 | 2.6% |
| CCCCOC(=O)C1=C(C)NC2=C(C(=O)CCC2)C1c1cc(OC)ccc1OC (stereo unspecified) | 0.1 | -2.5 | 4.9 | 2.7 | -2.7 | 3.3% |
| CCn1cc(C(=O)N2CCN(c3ccccc3F)CC2)c(=O)c2cc(S(=O)(=O)N(C)C3CCCCC3)ccc21 | -0.3 | nt | -8.6 | nt | nt | 3.0% |
| O=C(Cc1cccs1)Nc1ccon1 | -0.3 | 1.1 | 31.4 | -8.2 | -0.9 | -2.7%[38.3 µM] |
| NC(=O)CSc1nc2sc3c(c2c2ncnn12)CCCC3 | -0.1 | -25.6 | 19.0 | 12.3 | -0.7 | -0.6% |

Main list (from the top)
| canonical_smiles | TRPML1 agonist | Six1-Eya2 blk | TRPML1 inh | D2 PAM | D2 ag | PINK1 expr mod |
| --- | --- | --- | --- | --- | --- | --- |
| CC1CCCCC1NC(=O)c1ccc2c(c1)[nH]c(=O)n2C1CCCC1 (stereo unspecified) | 0.8 | 4.4 | 7.7 | 2.2 | -0.4 | -0.2% |
| Cc1cccc(C)c1NC(=O)c1cccc(C(=O)Nc2c(C)cccc2C)n1 | 0.8 | 11.9 | 8.9 | -1.1 | 2.6 | 7.3% |
| CCOC(=O)c1c(C)[nH]c(C)c1C(=O)COC(=O)CSc1ccc(C)cc1 | 2.6 | ? | 12.8 | -1.4 | -0.5 | 2.6% |
| CCCCOC(=O)C1=C(C)NC2=C(C(=O)CCC2)C1c1cc(OC)ccc1OC (stereo unspecified) | 0.1 | -2.5 | 4.9 | 2.7 | -2.7 | 3.3% |
| CCn1cc(C(=O)N2CCN(c3ccccc3F)CC2)c(=O)c2cc(S(=O)(=O)N(C)C3CCCCC3)ccc21 | -0.3 | nt | -8.6 | nt | nt | 3.0% |
| O=C(Cc1cccs1)Nc1ccon1 | -0.3 | 1.1 | 31.4 | -8.2 | -0.9 | -2.7%[38.3 µM] |
| NC(=O)CSc1nc2sc3c(c2c2ncnn12)CCCC3 | -0.1 | -25.6 | 19.0 | 12.3 | -0.7 | -0.6% |
| C=CCc1ccccc1OCCn1c(C2CC(=O)N(Cc3ccc(F)cc3)C2)nc2ccccc21 (stereo unspecified) | 0.1 | nt | ? | nt | nt | -1.5% |
| CCOC(=O)C1=C(C)NC(C)=C(C(=O)OC)C1c1ccco1 (stereo unspecified) | 1.0 | -3.4 | -1.5 | -4.9 | -1.7 | 0.2% |
| Cc1ccc(C(=O)NCCNC(=O)c2ccc(C)nc2)cc1 | -0.1 | 1.4 | 18.3 | -5.6 | -3.1 | -1.1% |
| O=C1c2cccnc2C(=O)N1c1cccc(-c2nc3ccccc3o2)c1 | -0.7 | -14.6 | -26.2 | ? | -0.6 | 7.9% |
| c1ccc(OCc2nnc3sc(C4COc5ccccc5O4)nn23)cc1 (stereo unspecified) | 0.4 | 9.9 | -7.0 | 0.7 | 0.4 | 3.5% |
| O=C(CC1C(=O)NC2CCCCC2N1C(=O)c1ccc([N+](=O)[O-])cc1)Nc1ccccc1 (stereo unspecified) | -0.6 | 8.5 | 29.2 | -14.8 | -1.5 | 0.6% |
| COc1cc2c(C(=O)N3CCCc4ccccc43)cn(C)c(=O)c2cc1OC | 2.2 | 1.1 | 28.3 | 14.7 | -1.6 | 1.7% |
| O=C1CC(c2cc(Br)ccc2F)c2cc3c(cc2N1)CCC3 (stereo unspecified) | 1.3 | 1.5 | -4.7 | -7.2 | -0.5 | 7.1%[38.3 µM] |
| Cc1sc2nc(CSc3cccc(C(F)(F)F)c3)[nH]c(=O)c2c1C | -0.2 | 9.2 | -6.3 | -18.4 | -1.9 | 8.0% |
| Cc1ccc(C(=O)COC(=O)CNS(=O)(=O)c2ccccc2)cc1[N+](=O)[O-] | 0.6 | 19.6 | -4.9 | -48.8 | -14.1 | 2.1% |
| O=C(CSc1ccc2nnc(-c3cccc(F)c3)n2n1)NCC1CCCO1 (stereo unspecified) | -0.5 | 1.1 | -8.8 | 0.6 | 1.2 | -2.6%[38.3 µM] |
| CC(C)CCCN1CCN=C1N(C)C | -0.1 | -0.4 | -11.5 | -4.5 | -1.8 | -0.4% |
| Cc1cc([N+](=O)[O-])nn1CCCC(=O)NCc1ccc(F)cc1 | -0.6 | 6.0 | -28.2 | -11.5 | -4.4 | 1.3% |
| Oc1ccc(/C=N/n2c(COc3ccccc3)n[nH]c2=S)c(O)c1 | 3.0 | -2.9 | 20.6 | 4.1 | ? | -0.8% |
| Cc1ccc(C(=O)c2c3ccccc3[n+]([O-])n2CCC(N)=O)cc1 | 0.1 | 0.7 | -9.8 | -0.9 | -0.5 | 2.0% |
| CC1CCN(S(=O)(=O)c2ccc3c(c2)c(=O)c(C(=O)N2CCOCC2)cn3C)CC1 | 0.0 | -1.6 | 14.1 | -3.8 | -2.5 | 1.7% |
| CCCCN(C)C(=O)c1coc(=O)c2ccccc12 | -0.7 | 0.7 | -4.6 | -4.6 | -2.1 | 0.2% |
| COc1ccc(CCN(C)C(=O)c2cncc(Br)c2)cc1OC | 0.3 | -0.7 | 0.2 | 1.1 | -3.1 | 0.0% |
| COCC(=O)NNC(=S)Nc1cccc(C)c1C | 2.3 | -2.3 | -13.3 | -15.6 | -4.4 | -0.6% |
| CCCS(=O)(=O)N1CC(=O)N(c2ccc(Cl)cc2C)C(C)(C(=O)NC2CCCC2)C1 (stereo unspecified) | 1.6 | nt | -9.6 | nt | nt | -1.2% |
| Cc1ccc(C)c(N2CCN(S(=O)(=O)c3ccc4c(c3)NC(=O)CO4)CC2)c1 | 3.2 | -3.1 | 51.3 | -3.8 | 4.2 | 2.8% |
| CCOc1ccc(CN2CCc3nc(N4CCN(c5ncccn5)CC4)ncc3C2)cc1OC | 0.7 | nt | 7.0 | nt | nt | 1.8% |
| O=C(OCc1ccc([N+](=O)[O-])cc1)C1CCN(S(=O)(=O)c2ccccc2)CC1 | -0.1 | -15.7 | 40.3 | -1.8 | 4.1 | -0.4% |
| Cc1sc(N/N=C/c2ccco2)nc1-c1ccccc1 | 0.1 | -4.8 | 14.3 | 6.9 | ? | 3.8% |
| CCN(CC)CCCNC(=O)CC1Oc2ccc(C)cc2NC1=O (stereo unspecified) | 0.5 | -2.1 | 4.0 | -3.8 | -1.0 | 1.6% |
| Cc1nc2nc(SCc3ccc(F)cc3Cl)nn2c(C)c1Cc1ccccc1 | 1.6 | nt | 55.6 | nt | nt | 3.1% |
| Cc1ccccc1C(=O)Nc1ccc(C(=O)OCc2cc(=O)n3c4c(sc3n2)CCCC4)cc1 | 2.6 | nt | 49.2 | nt | nt | -1.5% |
| CN1CCN(S(=O)(=O)c2cccc(S(=O)(=O)c3ccc(Cl)c(Cl)c3)c2)CC1 | 2.4 | 2.0 | 17.2 | -11.4 | -1.5 | -0.1% |
| CCc1ccc(N/C(N)=N/c2nc(CSc3ncccn3)cc(=O)[nH]2)cc1 | 1.3 | -0.2 | 5.1 | -5.3 | 10.6 | 10.2% |
| CC(=O)N/N=C/c1cc(C(C)(C)C)cc(/C=N/NC(C)=O)c1O | 4.2 | -76.1* | 11.6 | -12.4 | -1.3 | 8.3% |
| CCN(CC)c1ncnc2c1ncn2Cc1c(Cl)cccc1Cl | 3.6 | -1.8 | 10.2 | -20.5 | -3.7 | 0.5% |
| COc1cc(NC(=O)CSc2nc3[nH]ncc3c(=O)n2-c2ccc(Cl)cc2)cc(OC)c1 | 0.8 | -7.4 | -22.3 | 21.6 | ? | -0.1% |
| O=C(NCC(c1ccco1)N1CCc2ccccc2C1)c1c(F)cccc1F (stereo unspecified) | 0.3 | -6.9 | -17.2 | -24.2 | -5.2 | 1.9% |
| CC(=O)Nc1ccc(S(=O)(=O)Nc2ccc(NC(=O)c3ccco3)cc2)cc1 | 0.1 | -4.0 | -4.8 | 14.8 | -0.1 | nt |
| CCCOc1cccc(-c2nc3ccccc3c(=O)o2)c1 | 1.4 | -5.0 | 34.4 | 26.4 | 1.7 | 1.3% |
| CS(=O)(=O)c1ccc(Cl)c(NC(=O)C2CCCCN2S(=O)(=O)c2ccccc2)c1 (stereo unspecified) | -0.4 | 0.9 | -2.3 | -14.4 | -3.0 | 3.6% |
| NS(=O)(=O)c1cc(C(=O)NCC2CCCCC2)ccc1Cl | 0.0 | 2.5 | 24.5 | -0.8 | 2.7 | 2.6% |
| COc1ccc(NC(=O)COC(=O)CCCc2c[nH]c3ccccc23)cc1 | -0.3 | -7.0 | 7.7 | -1.3 | -1.3 | nt |
| COc1ccc(C=C2CCC3C(CCCC34OCCO4)C2=O)cc1 (stereo unspecified) | -0.7 | 1.4 | -0.5 | -10.3 | -6.1 | 6.9% |
| CC(=O)Nc1ccc(Nc2c([N+](=O)[O-])cc(S(C)(=O)=O)cc2[N+](=O)[O-])cc1 | 0.2 | 1.7 | -25.4 | 6.0 | -5.1 | 3.3% |
| O=S(=O)(O)c1nnc2sc3ccccc3n12 | -0.5 | -3.7 | 0.8 | -5.7 | 0.0 | -0.1% |
| O=C(CSc1nc(-c2ccccc2)nc2ccc(F)cc12)Nc1ccc(C(=O)O)cc1 | 0.6 | -19.8 | -1.8 | -3.7 | -1.3 | -0.8% |
| CC(C)c1nnc(NC(=O)CCS(=O)(=O)c2ccccc2)s1 | -0.6 | -2.1 | -1.6 | 5.1 | -3.1 | 4.6% |
| CC1CCc2nc(NC(=O)CN3CCN(Cc4ccc5c(c4)OCO5)CC3)sc2C1 (stereo unspecified) | -0.4 | -16.3 | 17.3 | -31.3 | -0.4 | -1.1% |

Pulled by compound from the list above, three records:
| canonical_smiles | TRPML1 agonist | Six1-Eya2 blk | TRPML1 inh | D2 PAM | D2 ag | PINK1 expr mod |
| --- | --- | --- | --- | --- | --- | --- |
| CC1CCc2nc(NC(=O)CN3CCN(Cc4ccc5c(c4)OCO5)CC3)sc2C1 (stereo unspecified) | -0.4 | -16.3 | 17.3 | -31.3 | -0.4 | -1.1% |
| CCCOc1cccc(-c2nc3ccccc3c(=O)o2)c1 | 1.4 | -5.0 | 34.4 | 26.4 | 1.7 | 1.3% |
| NS(=O)(=O)c1cc(C(=O)NCC2CCCCC2)ccc1Cl | 0.0 | 2.5 | 24.5 | -0.8 | 2.7 | 2.6% |
